Sa RN4220 lethal = kills Staphylococcus aureus RN4220. hit rate 0.33% among 330,000. inhibition, % (no concentration beside the values). S. aureus RN4220 growth, OD600, 16 h. AID 1259311;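 active means z-score of -3 or lower and OD600 up to 0.18 on both plates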;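 further: plate controls were untreated cells for no effect and reference antibiotic for full effect; stock transfer was 100 nL into about 80 µL; one replicate is shown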
PrP 5UTR inh = suppresses PrP 5' UTR mRNA reporter expression. hit rate 0.35% among 340,000. inhibition, % (concentration not given with the values). cell-based PrP 5' UTR mRNA reporter, plate reader;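 active means every replicate at 50% or more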;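 further: 0 = median of the neutral control wells; tested in H4 reporter cells; numbers are from one replicate; inactives centre near -14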
BJeLR viability = BJeLR cell viability loss; AID 1554; BJeLR (HRASV12) viability, CellTiter-Glo ATP luminescence, 48 h; reference of the scale not given here; inhibition, % (no concentration beside the values); hit rate 0.17% among 300,000;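 active means replicate mean above 50%; inconclusive means above 50% but judged a plate artefact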;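 further: 50 nL library stock added to about 25 µL; numbers are from one replicate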
Sa ugtP lethal = compounds lethal to S. aureus RN4220 ugtP deletion mutant; OD600 growth, 16 h; some inactives read as strong as hits; growth inhibition, % (test concentration not listed); hit rate 0.54% among 330,000; AID 1259309;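 active means z-score under -3 and OD600 up to 0.15 on both plates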;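 further: plate controls were untreated wells for no effect and antibiotic for full effect; wells of about 80 µL received 100 nL stock; the first replicate is given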
Mtb hypoxia rep = Mtb hypoxia fluorescent reporter inhibition. M. tuberculosis hypoxia-regulated fluorescent reporter, fluorescence. fluorescence inhibition, % (no concentration beside the values). hit rate 0.1% among 300,000. AID 1159583;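 active means 35 to 45% if threefold the growth effect, above 45% if 1.5-fold the growth effect; inactive means the rest, general growth blockers included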;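 further: wells of about 50 µL received 100 nL stock; 0% = vehicle wells and 100% = reference inhibitor wells; whole bacteria with a GFP reporter of the hypoxia response; strong numbers were not always called active; many hits fall short of the cut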
Autofluor counter = counter-screen for toxin protease inhibitors: compound fluorescence. compound autofluorescence counterscreen, microsphere flow cytometry; stronger effect = higher value. fluorescence intensity (no concentration beside the values). hit rate 3.1% among 360,000;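 active means at least 3 SD above the mean of all compounds, about 16000 in these data; inconclusive means too few beads counted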;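 further: 100 nL of 1 mM stock went into each well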
Mtb hypoxia rep growth = further read-out of Mtb hypoxia rep, marked with its call; growth inhibition, %; measured here: M. tuberculosis growth (absorbance);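 0% = vehicle and 100% = reference antibiotic; read after six days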
Numbers without * were called inactive; u = inconclusive; x = no result given.

SMILES	Sa RN4220 lethal	PrP 5UTR inh	BJeLR viability	Sa ugtP lethal	Mtb hypoxia rep	Mtb hypoxia rep growth	Autofluor counter
Cc1c(Cl)c([N+](=O)[O-])nn1CCCC(=O)Nc1sc2c(c1C#N)CCC2	12.3	-24.9	-6.0	-8.2	-0.7	2.7	12912
O=C(Nc1ccccc1Cl)C(Cl)C(=O)c1ccccc1 (configuration not stated)	1.4	-23.2	x	-0.7	4.6	9.6	3240
CC(C)N(C(=O)CSc1nnc(CSc2ncccn2)n1C)C(C)C	6.7	-10.8	x	11.0	22.6	-2.4	3554
COc1ccc(/C=C/C(=O)NCc2ccc(F)cc2)cc1S(=O)(=O)N1CCOCC1	1.7	-5.6	3.1	-1.9	11.2	6.9	3892
O=C(CSCc1ccccc1Cl)NNC(=O)c1ccccc1	0.6	-16.3	-15.6	2.2	9.7	15.2	18457*
Cc1ccc(C(=O)Nc2cc(Cl)ccc2Oc2ccccc2)cc1[N+](=O)[O-]	1.5	-22.5	-0.7	-5.7	-2.8	-3.5	9022
COc1ccc(C(=O)NC2CCN(S(=O)(=O)c3ccc(C)cc3)CC2)cc1	1.2	5.9	3.2	2.4	11.3	14.7	3632
C#CCOCCOCCOCCNc1nc(N2CCN(C(=O)Cn3cc(CCCN=C(N)N)nn3)CC2)nc(N2CCN(C(=O)C(CCCCN)n3cc(CCC(=O)O)nn3)CC2)n1 (configuration not stated)	3.0	x	x	-0.3	14.5	5.4	x
COCCN1C(=O)N(C)[C@@H](c2ccccc2)C(C(C)=O)=C1C	x	-13.9	-1.8	x	x	x	3466
COCCn1c(C)cc(C=NNC(=O)c2cc3ccccc3cc2O)c1C	5.1	x	x	3.5	-5.0	-0.4	x
OCC1(CO)COC(c2cccnc2)N1 (configuration not stated)	4.6	-36.0	2.6	0.9	-5.7	-1.5	9235
CCCCn1nnnc1SCC(=O)NCc1ccccc1	1.9	-25.0	-10.9	4.6	12.6	-1.5	6731
COc1ccccc1CNS(=O)(=O)c1cc(CN2C(=O)c3cccnc3C2=O)ccc1OC	2.4	-16.0	8.2	4.2	4.4	-0.1	5539
COc1cccc(NC(=O)CSc2nnc(NC(=O)C3CCC3)s2)c1	0.9	-10.3	-2.9	11.7	-0.4	1.6	4406
CNC(C)C#Cc1c(-c2cc(OC)c(OC)c(OC)c2)noc1C (configuration not stated)	6.6	-21.7	-5.3	6.2	16.2	18.8	4544
COc1ccc2oc(=O)c(-c3nnc(NCc4ccco4)s3)cc2c1	4.2	-72.6	-1.7	-15.3	-77.2	-16.5	3275
CC(OC(=O)c1ccc([N+](=O)[O-])cc1)C(=O)NCC1CCCCC1 (configuration not stated)	2.3	-30.4	x	-1.2	8.8	-6.8	4006
O=C(NCc1ccc(Cl)cc1)C1CC(O)CN1S(=O)(=O)c1ccc(Cl)cc1 (configuration not stated)	-0.9	-15.0	-0.1	10.7	-2.1	-0.3	3651
CC(=O)Oc1ccc(-c2cccc(C(=O)OCC(=O)Nc3ccccc3Oc3ccccc3)c2)cc1	3.1	-27.6	1.2	-4.6	3.3	-3.1	2038
CCOC(=O)CNC(=O)CN1C(=O)CCSc2ccccc21	2.8	-27.9	6.5	0.8	5.1	9.2	20780*

A run of entries from further up, as a working copy:
SMILES	Sa RN4220 lethal	PrP 5UTR inh	BJeLR viability	Sa ugtP lethal	Mtb hypoxia rep	Mtb hypoxia rep growth	Autofluor counter
O=C(Nc1ccccc1Cl)C(Cl)C(=O)c1ccccc1 (configuration not stated)	1.4	-23.2	x	-0.7	4.6	9.6	3240
CC(C)N(C(=O)CSc1nnc(CSc2ncccn2)n1C)C(C)C	6.7	-10.8	x	11.0	22.6	-2.4	3554

Continuation:
SMILES	Sa RN4220 lethal	PrP 5UTR inh	BJeLR viability	Sa ugtP lethal	Mtb hypoxia rep	Mtb hypoxia rep growth	Autofluor counter
CNC(=S)N1N=C(c2ccc(C)cc2)CC1c1ccc(OC)c(OC)c1 (configuration not stated)	3.9	1.8	-4.3	4.1	9.3	8.7	10025
CCN(CC)S(=O)(=O)c1ccc(NN=c2c(=O)c3ccccc3c2=O)cc1	4.0	-11.7	0.9	-1.6	-2.0	1.1	3709
CS(=O)(=O)N(CC(=O)N1CCN(c2ccccc2)CC1)c1cc(C(F)(F)F)ccc1Cl	3.7	-23.4	-7.0	-2.2	6.1	16.9	9150
O=C(O)C(Cc1ccccc1)N=Cc1c(O)c2ccccc2oc1=O (configuration not stated)	5.0	-14.9	0.7	6.5	9.4	6.4	4446
O=C(CCc1nc2ccccc2s1)OCc1ccccc1F	3.1	-22.8	-3.6	21.0	4.5	-0.8	1918
CSc1nc(Oc2ccc(=O)n(C)n2)nc(N(C)C)n1	8.8	-15.0	3.7	10.4	12.1	8.5	3186
CC(C)n1c(/C=C/[C@H](O)C[C@H](O)CC(=O)O)c(-c2ccc(F)cc2)c2ccccc21	0.5	-24.0	x	0.2	21.2	41.5	3558
Cc1c(C(=O)N2CCC(n3nccc3NC(=O)C3CC3)CC2)[nH]c2ccc(Cl)cc12	4.6	-25.0	-7.3	5.1	2.5	12.7	5972
COc1ccccc1N1CCN(C(=O)c2cc(-c3ccccc3O)on2)CC1	5.2	-5.6	0.0	0.9	0.3	-4.8	3883
CCC(CO)Oc1cc(NCc2cccc(F)c2)c2ncn(C(C)C)c2c1 (configuration not stated)	1.2	-4.4	x	-3.2	2.4	9.6	3091
COc1ccc(Cn2c(C)c(C)c(C#N)c2NC(=O)Nc2ccc(Cl)cc2)cc1	-1.1	-7.9	-5.2	4.6	x	x	4603
O=C(c1ccc(Cl)cc1)N1CCC2(CC1)OCCO2	5.6	-19.4	5.8	5.6	-7.1	6.0	3627
CCCOC(=O)Nc1ccc(N2CCCCC2)cc1	4.0	-29.9	4.3	8.1	-2.9	-0.6	22287*
O=C(Nc1cc(S(=O)(=O)N2CCOCC2)ccc1Cl)c1cc([N+](=O)[O-])ccc1Cl	7.0	-12.4	x	4.8	14.2	8.9	3415
C/C(=N/OCO/N=C(/C)c1ccc(F)cc1)c1ccc(F)cc1	x	2.0	12.0	x	x	x	9958
Clc1cccc(N2CCN(Cc3nc(-c4ccccc4)no3)CC2)c1	-0.9	-5.2	5.3	15.0	x	x	5868
C[C@H](NS(=O)(=O)c1ccc(F)cc1)C(=O)OCC(=O)c1c(N)n(C)c(=O)n(C)c1=O	5.4	x	x	8.7	4.9	-1.3	x
COc1ccc(C(=O)COC(=O)CNC(=O)c2cccs2)cc1Br	6.9	-0.7	-2.5	8.6	19.1	4.6	3000
CC(C)CCNC(=O)C1CC2Cn3c(nc4cc(Cl)c(Cl)cc43)C2N1C (configuration not stated)	0.9	4.5	-2.6	2.0	15.0	20.2	3709
Cc1ccccc1NCCC(=O)Nc1ccc(F)cc1	2.9	-11.3	1.7	5.8	2.2	-5.3	3490
Cc1cccc2cc(CNCC3CCCO3)c(Cl)nc12 (configuration not stated)	6.8	-2.9	-6.2	6.7	6.4	6.3	3423
O=C(CSc1nc(-c2ccco2)cc(C(F)(F)F)n1)N1CCSCC1	23.1	-6.7	2.9	1.0	8.7	8.1	2450
C=C1CCC(N(O)c2cc(C)on2)C(=C)CCC2C1CC2(C)C (configuration not stated)	2.7	-8.3	x	1.2	2.7	-1.5	3307
Cc1ccccc1OCc1nc2c3cnn(C)c3ncn2n1	5.5	-42.7	-0.5	-4.3	15.9	9.3	9123
COc1ccc(-c2cn(Cc3ccc4ccccc4c3)nn2)cc1	4.4	-10.7	-2.7	3.4	1.2	3.5	3597
Cc1ccc(CC(=O)Nc2cccc(C#N)c2)cc1	-1.1	-12.9	2.4	-4.9	-5.6	4.8	2030
CC(C)(C)n1ncc2c(=O)n(CC(=O)N3CCN(c4ccccc4)CC3)cnc21	8.4	-27.8	x	0.8	-5.7	1.0	3208
N#Cc1nc(COc2ccccc2Cl)oc1NCc1ccco1	-2.6	-22.1	-8.9	-10.9	-9.2	-0.3	4699
COc1ccccc1CNC(=O)C1CCN(S(=O)(=O)c2ccc3nc4c(c(C(=O)O)c3c2)CCCC4)CC1	2.4	-13.8	-14.0	5.4	6.4	-1.3	4221
CC1=C(C(=O)N(C)C)C(c2ccccc2OC(F)F)NC(=O)N1 (configuration not stated)	0.0	-18.1	-6.2	4.2	9.4	1.0	3458
C=CCc1ccc(OCCOc2cccc3cccnc23)c(OC)c1	5.8	-13.1	-3.1	-5.1	14.3	15.7	2585
CC(=O)Nc1ccc(NC(=O)CSc2ncc(C(=O)Nc3ccc(Cl)cc3)c(=O)n2C)cc1	3.2	-23.4	-7.3	-0.4	6.0	5.9	u
CCn1c(SCC(=O)Nc2cccc(F)c2)nnc1-c1cc2cc(Br)ccc2o1	6.1	-22.4	-7.9	8.3	x	x	4951
COc1ccc(C(=O)/C=C2/C(=O)Nc3ccccc32)cc1OC	x	-7.7	3.2	x	x	x	3631
Cc1nn(Cc2ccc(C(=O)NC(C)(C)C)o2)c(C)c1Br	4.6	-4.7	5.0	-9.2	0.4	-2.7	2727
COc1ccc(C2CC(=O)C=C(c3cccc4c3Oc3ccccc3S4)C2)cc1OC (configuration not stated)	8.2	x	x	1.7	6.5	7.2	x
COC(=O)c1cccc(NS(=O)(=O)c2cccs2)c1C	7.2	-34.4	-17.1	0.5	6.8	0.1	8983
Cn1nccc1C(=O)N1CCc2ccccc21	1.7	-31.8	1.0	2.0	5.9	1.1	8678
O=C(CCNC(=O)c1ccco1)NCCc1c[nH]c2ccccc12	1.7	-5.0	x	-7.0	-1.1	1.1	4773
COc1ccc(-n2c(=O)c3ccccc3c3ccccc3c2=O)c(OC)c1	-0.3	-19.1	6.4	6.4	24.3	32.6	2194
N=c1c2ccccc2nnn1-c1cccc(C(F)(F)F)c1	7.6	-6.0	4.1	7.5	-0.8	-1.5	2572
COc1cc2c(cc1OC)CN(CC(=O)NC(=O)NC1CCCCC1)CC2	11.6	45.6	8.7	3.3	-11.8	0.2	4603
COc1ccc(-c2[nH]ncc2CN2CCC(c3ccncc3)CC2)cc1F	2.2	7.1	-21.4	2.6	2.1	3.4	5246
O=C(Cn1nc(-c2ccccc2)ccc1=O)Nc1ccc(N2CCN(C(=O)c3cccs3)CC2)cc1	19.4	-34.7	-1.3	11.0	-8.4	5.9	3794
CN(C)c1nc(-c2ccccc2)c2cc(Cl)ccc2n1	2.7	-6.3	-0.3	9.4	11.3	10.3	5363
CCN(CCS(=O)(=O)c1ccc(Cl)cc1)C(=O)Nc1ccccc1	2.4	x	-1.7	5.9	0.2	-6.4	4197
COc1cccc(NC(=O)CSc2nc3ccccc3c(=O)n2Cc2cccs2)c1	9.1	-24.7	18.4	5.4	-1.1	-1.7	8868
C[C@H](NC(=O)c1nc[nH]c1C(=O)N[C@H](C)c1ccccc1)C(=O)OC(C)(C)C	x	-11.8	13.3	x	x	x	3774
Cc1c(Cc2ccc3c(c2)OCO3)sc(NC(=O)c2cccc3ccccc23)c1C(N)=O	-24.6	-38.0	-4.0	46.2	3.9	5.2	6660

Structures shown so far that have an aryl thioether with sulfur outside any ring, in the order listed:
SMILES	Sa RN4220 lethal	PrP 5UTR inh	BJeLR viability	Sa ugtP lethal	Mtb hypoxia rep	Mtb hypoxia rep growth	Autofluor counter
CC(C)N(C(=O)CSc1nnc(CSc2ncccn2)n1C)C(C)C	6.7	-10.8	x	11.0	22.6	-2.4	3554
CCCCn1nnnc1SCC(=O)NCc1ccccc1	1.9	-25.0	-10.9	4.6	12.6	-1.5	6731
COc1cccc(NC(=O)CSc2nnc(NC(=O)C3CCC3)s2)c1	0.9	-10.3	-2.9	11.7	-0.4	1.6	4406
CSc1nc(Oc2ccc(=O)n(C)n2)nc(N(C)C)n1	8.8	-15.0	3.7	10.4	12.1	8.5	3186
O=C(CSc1nc(-c2ccco2)cc(C(F)(F)F)n1)N1CCSCC1	23.1	-6.7	2.9	1.0	8.7	8.1	2450
CC(=O)Nc1ccc(NC(=O)CSc2ncc(C(=O)Nc3ccc(Cl)cc3)c(=O)n2C)cc1	3.2	-23.4	-7.3	-0.4	6.0	5.9	u
CCn1c(SCC(=O)Nc2cccc(F)c2)nnc1-c1cc2cc(Br)ccc2o1	6.1	-22.4	-7.9	8.3	x	x	4951
COc1cccc(NC(=O)CSc2nc3ccccc3c(=O)n2Cc2cccs2)c1	9.1	-24.7	18.4	5.4	-1.1	-1.7	8868
